GALR2 agonist – GALR2 receptor agonists, primary screen, cell-based. Galanin receptor type 2 (Homo sapiens), O43603. GALR2-expressing cells, agonist activation read-out. activation, %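 (tested at 5 µM)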. 140,000 compounds, 0.48% hits. AID 803, 2007;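 active = above mean plus 3 SD of all compounds, about 5% in these data, not always enough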;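 note: 0% = vehicle buffer wells and 100% = reference agonist at full effect; tested in CHO reporter cells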
PKD1 kinase inh – inhibitors of human PKD1 kinase, biochemical, fluorescence polarization; inhibition, %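 (about 10 µM by stock and volumes)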; PKD1 kinase fluorescence polarization assay; 200,000 compounds, 0.056% hits; AID 797, 2007;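 active = inhibition of 50% or more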;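 note: controls were vehicle for no effect and a reference inhibitor for full effect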
Target sequence (Q15139 whole entry, looked up): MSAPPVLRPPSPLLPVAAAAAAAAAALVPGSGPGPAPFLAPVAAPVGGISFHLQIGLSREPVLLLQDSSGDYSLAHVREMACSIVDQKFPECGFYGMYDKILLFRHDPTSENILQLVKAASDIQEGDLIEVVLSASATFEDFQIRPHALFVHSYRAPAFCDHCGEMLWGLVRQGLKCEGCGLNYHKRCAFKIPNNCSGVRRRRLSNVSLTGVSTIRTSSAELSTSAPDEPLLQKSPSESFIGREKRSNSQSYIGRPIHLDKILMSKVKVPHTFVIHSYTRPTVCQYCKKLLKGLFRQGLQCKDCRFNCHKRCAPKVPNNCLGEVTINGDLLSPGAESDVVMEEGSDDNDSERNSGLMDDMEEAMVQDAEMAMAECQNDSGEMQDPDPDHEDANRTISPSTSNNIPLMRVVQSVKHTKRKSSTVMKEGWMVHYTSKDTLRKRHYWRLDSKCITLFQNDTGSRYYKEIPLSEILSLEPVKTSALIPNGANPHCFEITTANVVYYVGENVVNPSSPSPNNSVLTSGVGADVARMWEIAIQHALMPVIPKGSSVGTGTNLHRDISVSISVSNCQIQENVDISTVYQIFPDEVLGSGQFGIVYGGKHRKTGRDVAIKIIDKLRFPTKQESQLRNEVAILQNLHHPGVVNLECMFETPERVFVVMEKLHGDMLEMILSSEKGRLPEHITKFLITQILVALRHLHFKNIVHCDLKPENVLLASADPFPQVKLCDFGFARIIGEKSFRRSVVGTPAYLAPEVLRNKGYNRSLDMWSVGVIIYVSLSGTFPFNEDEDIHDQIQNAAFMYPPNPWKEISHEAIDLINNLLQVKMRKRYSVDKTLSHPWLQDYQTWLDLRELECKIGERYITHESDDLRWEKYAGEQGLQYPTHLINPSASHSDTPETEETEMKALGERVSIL
Insulin prom inh – inhibitors of insulin promoter-driven GFP, primary screen, imaging, TRM-6 cells (human fetal islet line), eGFP reporter, cell count; reporter expression induced with tamoxifen; inhibition, % at 2 µM; 130,000 compounds, 0.9% hits; AID 1273, 2008;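 active = inhibition above the mean plus 3 SD, with well images judged a real hit on visual review, cut at about 60% in these data, passing the limit was not always enough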
RGS16-Gao HTS – modulators of RGS16 binding to Galphao, primary screen, biochemical, human proteins, multiplexed bead flow cytometry; Regulator of G-protein signaling 16 (Homo sapiens) + Guanine nucleotide-binding protein …; 220,000 compounds, 0.38% hits; AID 1441, 2008; binding response (% of control), % at 10 µM; bead-based flow cytometry RGS16-Galphao binding, fluorescence; actives lie on both sides;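 active = below 25% or above 175%, edge rows of some plates excepted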;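 note: Galphao activated by GDP with aluminum fluoride before binding; 100% = wells without compound and 0% = beads without RGS; some results beyond the cut were filed as inactive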
HSV augment – enhancers of HSV replication in host cells, fold increase, host cell viability; maximum fold increase; HSV replication augmentation in cells; AID 1956, 2009; 220,000 compounds, 0.005% hits;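 active = peak rise of 1.5-fold or more in the series; tested in PC3 cells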;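 note: first round at 10 µM; read as green reporter fluorescence; hits show the peak of a series up to 25 µM; 1 = signal of infected wells without compound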
Insulin prom inh cell count – recorded beside Insulin prom inh, whose call it bears; normalized cell count, %; measured here: cell count, toxicity; reference of the scale not given here;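 cells exposed to compound for 48 h; stained nuclei by imaging scaled within each plate; lower means fewer cells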
HSV augment primary fold – second read-out of HSV augment, no call of its own (marks repeat the call); fold increase; compound at 10 µM; measured here: primary screen fold increase 10 uM; tested in PC3 cells;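 GFP signal in the first replicate; 1 = infected wells without compound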
An asterisk follows results filed as active.

`CC1=C(C)CC(C(=O)N2CCN(Cc3ccc4c(c3)OCO4)CC2)C(C(=O)O)C1` (stereo unspecified) gave PKD1 kinase inh -1.8, RGS16-Gao HTS 104.2, HSV augment inactive and HSV augment primary fold 0.87.
Screening Cc1cc(NC(=O)CCC(=O)N(C2CC2)C2(C(=O)NC3CCCC3)CCC(C)CC2)no1 (stereo unspecified) returned GALR2 agonist -2.2, PKD1 kinase inh -2.3, Insulin prom inh -72.7, RGS16-Gao HTS 106.6, HSV augment inactive, Insulin prom inh cell count 150.6 and HSV augment primary fold 1.17.
CCOC(=O)N1CCN(C(=O)c2ccc3c(=O)n(CCC4=CCCCC4)c(=O)[nH]c3c2)CC1 was read as GALR2 agonist 1.5, PKD1 kinase inh -3.2, RGS16-Gao HTS 103.4, HSV augment inactive and HSV augment primary fold 0.85.
Screening Cc1ccc(CS(=O)(=O)CCC(=O)NCC2CCCO2)cc1 (stereo unspecified) returned GALR2 agonist -3.9, PKD1 kinase inh -0.9, Insulin prom inh 36.0, RGS16-Gao HTS 98.2, HSV augment inactive, Insulin prom inh cell count 126.8 and HSV augment primary fold 0.81.
`CCOCc1nnc(NC(=O)CSc2ccccc2)s1` gave GALR2 agonist -0.5, PKD1 kinase inh -0.6, Insulin prom inh 10.5, RGS16-Gao HTS 107.2, HSV augment inactive, Insulin prom inh cell count 105.6 and HSV augment primary fold 1.07.
COc1ccc2nc(Cl)c(C3CC(c4ccco4)=NN3C(=O)CCC(=O)O)cc2c1 (stereo unspecified) was read as GALR2 agonist -0.7, PKD1 kinase inh -13.9, Insulin prom inh -46.1, RGS16-Gao HTS 107.2 and Insulin prom inh cell count 73.6.
`O=C(N/N=C/C=C\c1ccccc1[N+](=O)[O-])c1cccnc1` gave RGS16-Gao HTS 96.6, HSV augment inactive and HSV augment primary fold 0.78.
For COc1ccc(NC(=O)c2oc3ccccc3c2NC(=O)c2ccc3c(c2)OCO3)cc1 the results were GALR2 agonist 0.2, PKD1 kinase inh 3.5, Insulin prom inh -63.6, RGS16-Gao HTS 101.6, HSV augment inactive, Insulin prom inh cell count 53.2 and HSV augment primary fold 1.01.
N/C(=N\OC(=O)N1CCOCC1)c1ccc(Br)cc1 was read as PKD1 kinase inh -0.5, RGS16-Gao HTS 101.6, HSV augment inactive and HSV augment primary fold 0.91.
For COc1ccc(OCC(=O)N(Cc2ccco2)C2CCS(=O)(=O)C2)cc1 (stereo unspecified) the results were RGS16-Gao HTS 94.3, HSV augment inactive and HSV augment primary fold 0.89.
For CC(NC(=O)COC(=O)C1=COCCO1)C12CC3CC(CC(C3)C1)C2 (stereo unspecified) the results were PKD1 kinase inh -3.9, RGS16-Gao HTS 100.4, HSV augment inactive and HSV augment primary fold 0.92.
O=C(/C=C/Nc1nccs1)C(F)(F)Cl was read as PKD1 kinase inh 0.4, RGS16-Gao HTS 101.3, HSV augment inactive and HSV augment primary fold 1.05.
`COc1cccc(C(=O)NNC(=O)C(=O)N2CCCCC2)c1` gave PKD1 kinase inh 0.5, RGS16-Gao HTS 98.7, HSV augment inactive and HSV augment primary fold 0.93.
For COc1ccc(N2CCN(Cc3nc4c(c(=O)n(C)c(=O)n4C)n3Cc3cccc(C)c3)CC2)cc1 the results were GALR2 agonist -1.4, PKD1 kinase inh -11.2 and RGS16-Gao HTS 84.2.
Screening CCOc1cc(NC(=S)NCc2ccco2)c(OCC)cc1NC(=O)C1CC1 returned GALR2 agonist 0.3, PKD1 kinase inh -13.5, Insulin prom inh 16.7, RGS16-Gao HTS 107.5, HSV augment inactive, Insulin prom inh cell count 123.0 and HSV augment primary fold 0.92.
`COc1ccc(OCC(O)CNC(=O)c2cccs2)cc1` (stereo unspecified) gave RGS16-Gao HTS 99.0, HSV augment inactive and HSV augment primary fold 0.9.
For Cc1nn2c(-c3ccccn3)ccnc2c1Br the results were PKD1 kinase inh -5.2, RGS16-Gao HTS 102.4, HSV augment inactive and HSV augment primary fold 1.03.
`Cc1ccccc1NC(=O)CCN1CCc2ccccc2C1` gave PKD1 kinase inh -4.0, RGS16-Gao HTS 104.8, HSV augment inactive and HSV augment primary fold 1.04.
For CCCN(CC(=O)c1cc(C)n(C)c1C)S(=O)(=O)c1cccc(C(F)(F)F)c1 the results were GALR2 agonist -1.4, PKD1 kinase inh 1.9, Insulin prom inh 57.1, RGS16-Gao HTS 96.7, HSV augment inactive, Insulin prom inh cell count 19.6 and HSV augment primary fold 0.98.
`Cc1ccc(-c2nc3ncccc3o2)cc1NC(=O)c1sc2ccccc2c1Cl` gave GALR2 agonist -2.1, PKD1 kinase inh -11.2, Insulin prom inh 20.0, RGS16-Gao HTS 105.7, HSV augment inactive, Insulin prom inh cell count 152.6 and HSV augment primary fold 1.04.

Brought forward from above: 2 entries, followed by the next part.
For CCCN(CC(=O)c1cc(C)n(C)c1C)S(=O)(=O)c1cccc(C(F)(F)F)c1 the results were GALR2 agonist -1.4, PKD1 kinase inh 1.9, Insulin prom inh 57.1, RGS16-Gao HTS 96.7, HSV augment inactive, Insulin prom inh cell count 19.6 and HSV augment primary fold 0.98.
`Cc1ccc(-c2nc3ncccc3o2)cc1NC(=O)c1sc2ccccc2c1Cl` gave GALR2 agonist -2.1, PKD1 kinase inh -11.2, Insulin prom inh 20.0, RGS16-Gao HTS 105.7, HSV augment inactive, Insulin prom inh cell count 152.6 and HSV augment primary fold 1.04.
Screening Cc1nc2ccccc2nc1OCc1cccc([N+](=O)[O-])c1 returned PKD1 kinase inh 7.0, RGS16-Gao HTS 93.5, HSV augment inactive and HSV augment primary fold 0.95.
Screening CC(C)CNC(=S)NNC(=O)c1ccc2c(c1)OCO2 returned GALR2 agonist -1.6, PKD1 kinase inh 2.4, Insulin prom inh -6.7, RGS16-Gao HTS 92.8 and Insulin prom inh cell count 135.3.
Screening CC(C)N(C(=O)CSc1nc2c([nH]1)c(=O)n(C)c(=O)n2C)c1ccccc1 returned GALR2 agonist -0.9, PKD1 kinase inh -3.7, RGS16-Gao HTS 99.9, HSV augment inactive and HSV augment primary fold 0.95.
Screening COc1ccc(CCN2C(=O)CC(Cc3ccccc3)C2=O)cc1OC (stereo unspecified) returned RGS16-Gao HTS 98.2, HSV augment inactive and HSV augment primary fold 0.9.
Screening CSCCOC(=O)c1[nH]c2c(c1C)C(=O)CC(c1ccco1)C2 (stereo unspecified) returned GALR2 agonist 0.8, PKD1 kinase inh 6.2, RGS16-Gao HTS 99.4, HSV augment inactive and HSV augment primary fold 0.95.
O=C(N/N=C/c1cccc2cccnc12)[C@H]1C[C@@H]1c1ccccc1 was read as RGS16-Gao HTS 101.1, HSV augment inactive and HSV augment primary fold 0.97.
For Cc1ccc(C(=O)c2c[nH]cc2-c2ccccc2)cc1 the results were GALR2 agonist -2.0, PKD1 kinase inh 2.9, Insulin prom inh -218.8, RGS16-Gao HTS 108.4, HSV augment inactive, Insulin prom inh cell count 102.8 and HSV augment primary fold 0.88.
`COc1ccc(N(CC(=O)N2CCc3ccccc3C2)S(=O)(=O)c2c(C)[nH]c(=O)[nH]c2=O)cc1` gave GALR2 agonist -1.8, PKD1 kinase inh -5.8, RGS16-Gao HTS 100.4, HSV augment inactive and HSV augment primary fold 0.95.
Screening Cc1cc(C)c(OCC(=O)Nc2ccc3c(c2)OCO3)cc1C returned GALR2 agonist -0.7, PKD1 kinase inh -1.6, Insulin prom inh 25.0, RGS16-Gao HTS 101.4, HSV augment inactive, Insulin prom inh cell count 117.9 and HSV augment primary fold 0.98.
Screening CC(C(=O)Nc1cc([N+](=O)[O-])ccc1Cl)N1CCN(c2ccccc2O)CC1 (stereo unspecified) returned GALR2 agonist -1.5, PKD1 kinase inh 7.0, Insulin prom inh -30.2, RGS16-Gao HTS 109.9, HSV augment inactive, Insulin prom inh cell count 64.8 and HSV augment primary fold 0.8.
O=c1c(Cl)c(N2CCOCC2)cnn1-c1nc2ccccc2[nH]1 was read as PKD1 kinase inh -3.6, Insulin prom inh -11.1, RGS16-Gao HTS 102.3, HSV augment inactive, Insulin prom inh cell count 113.7 and HSV augment primary fold 0.88.
O=C(c1ccccc1)c1ccc(Sc2ccc([N+](=O)[O-])cc2)cc1 was read as RGS16-Gao HTS 104.8, HSV augment inactive and HSV augment primary fold 1.02.
For Cc1noc(C)c1S(=O)(=O)N1CCCC(C(=O)NCc2ccccn2)C1 (stereo unspecified) the results were GALR2 agonist -2.8, PKD1 kinase inh 6.2, RGS16-Gao HTS 101.4, HSV augment inactive and HSV augment primary fold 1.02.
For COc1ccccc1CC(=O)NC1CCC(C)CC1 (stereo unspecified) the results were PKD1 kinase inh 2.2, Insulin prom inh -15.0, RGS16-Gao HTS 88.8, HSV augment inactive, Insulin prom inh cell count 149.8 and HSV augment primary fold 1.
Screening CC(NC(N)=O)C(=O)Nc1ccc(Cl)c(S(=O)(=O)Nc2ccc(Br)cc2)c1 (stereo unspecified) returned PKD1 kinase inh -9.5, Insulin prom inh -63.6, RGS16-Gao HTS 125.3, HSV augment inactive, Insulin prom inh cell count 114.8 and HSV augment primary fold 0.99.
CCOC(=O)c1sc2ccccc2c1OC(=O)c1ccc(C)cc1 was read as GALR2 agonist 1.4, PKD1 kinase inh -7.4, RGS16-Gao HTS 97.2, HSV augment inactive and HSV augment primary fold 1.
For COc1ccc(-c2cc(C(=O)Nc3sc4c(c3C#N)CCCC4)c3ccccc3n2)cc1 the results were GALR2 agonist 0.2, PKD1 kinase inh -1.6, RGS16-Gao HTS 96.1, HSV augment inactive and HSV augment primary fold 0.93.
COc1ccc(-c2n[nH]c(=S)n2CC(C)C)cc1 was read as GALR2 agonist -1.6, PKD1 kinase inh -0.3, Insulin prom inh -271.4, RGS16-Gao HTS 50.9, HSV augment inactive, Insulin prom inh cell count 46.6 and HSV augment primary fold 0.83.
For O=C(CSc1ccc(F)cc1)NC1CCCCC1 the results were PKD1 kinase inh 0.8, RGS16-Gao HTS 98.3, HSV augment inactive and HSV augment primary fold 0.94.
`Cc1cccc(C)c1NC(=S)N(CCN(C)C)Cc1cccs1` gave PKD1 kinase inh -1.5, Insulin prom inh 6.7, RGS16-Gao HTS 102.6, HSV augment inactive, Insulin prom inh cell count 80.2 and HSV augment primary fold 0.96.
Screening O=[N+]([O-])c1ccc(N2CCN(S(=O)(=O)c3ccc(Cl)c(Cl)c3)CC2)cc1NCCN1CCOCC1 returned GALR2 agonist -0.3, PKD1 kinase inh -3.5, Insulin prom inh -31.0, RGS16-Gao HTS 104.5, HSV augment inactive, Insulin prom inh cell count 151.7 and HSV augment primary fold 0.93.
For O=[N+]([O-])c1ccc(N=NN(CCO)CCO)cc1 the results were GALR2 agonist 0.6, PKD1 kinase inh -14.8, Insulin prom inh -25.0, RGS16-Gao HTS 104.8 and Insulin prom inh cell count 83.8.
`CC(=O)NC(Cc1ccc(F)cc1)C(=O)NC1CCN(c2ncccc2[N+](=O)[O-])CC1` (stereo unspecified) gave PKD1 kinase inh -11.2, RGS16-Gao HTS 101.5, HSV augment inactive and HSV augment primary fold 0.94.
`c1csc(CNc2nc3ccccc3n2CCN2CCOCC2)c1` gave GALR2 agonist -0.3, PKD1 kinase inh -2.8, Insulin prom inh -13.8, RGS16-Gao HTS 215.2, HSV augment inactive, Insulin prom inh cell count 68.0 and HSV augment primary fold 1.01.
For Cc1nc2c(cnn2-c2ccc(Cl)cc2)c(=O)n1-c1ccc(N2CCC(C)CC2)cc1 the results were GALR2 agonist 2.9, PKD1 kinase inh 4.3 and RGS16-Gao HTS 178.2.
Screening O=C(CN(C(=O)CNS(=O)(=O)c1ccccc1)C1CCCC1)NCC1CCCO1 (stereo unspecified) returned GALR2 agonist 0.0, PKD1 kinase inh 6.4, RGS16-Gao HTS 104.6, HSV augment inactive and HSV augment primary fold 1.06.
`COc1cccc2c1CCC(NC(C)=O)C2=O` (stereo unspecified) gave GALR2 agonist -1.1, PKD1 kinase inh 1.9, Insulin prom inh -6.7, RGS16-Gao HTS 98.3, HSV augment inactive, Insulin prom inh cell count 101.6 and HSV augment primary fold 1.07.
`CCOc1ccc(C(=O)NCC(=O)OCC(=O)Nc2ccccc2OCC)cc1` gave GALR2 agonist -1.0, PKD1 kinase inh 4.1, Insulin prom inh 16.2, RGS16-Gao HTS 103.4, HSV augment inactive, Insulin prom inh cell count 71.7 and HSV augment primary fold 1.
`N#Cc1c(-c2ccccc2)ccnc1N1CCOCC1` gave PKD1 kinase inh 5.7, RGS16-Gao HTS 99.0, HSV augment inactive and HSV augment primary fold 1.
`COc1nc(OC)nc(N2CCC(C(=O)Nc3cccc4ccccc34)CC2)n1` gave GALR2 agonist -0.1, PKD1 kinase inh 8.1, RGS16-Gao HTS 95.1, HSV augment inactive and HSV augment primary fold 1.18.
